From PubChem BioAssay
Marburg entry inh: qHTS for inhibitors of binding or entry into cells for Marburg Virus; AID 540276, 2011; 1.8% of 300,000 active; Potency, µM (top dose mostly 37.8 µM), for inactives: at the highest dose activity change, negative = inhibition, usual class: inhibitors; Marburg virus pseudotyped entry inhibition, cell reporter; control for the full effect not named in the record; about a third of the inactives were read at about 46 µM; active = well fitted inhibition curve with a large enough effect; inconclusive = small, poorly fitted or top-dose-only effect, or effect the other way; inactive = flat fitted curve, though single readings scatter; tested in HEK293 cells; about a fifth of its hits are not listed in these tables; note: % is set by controls: 0 for no effect and ±100 for the full control effect; luciferase read-out
RE007 growth inh: qHTS Assay for Inhibitors of the HIV-1 protein Vpr. S. pombe RE007 Vpr strain, BacTiter-Glo ATP luminescence, 24 h; control for the full effect not named in the record. Potency, µM (titrated, usually from 92.2 µM), for the others: at the highest dose activity change, negative = less growth. 0.21% of 360,000 active. AID 651644, 2012; active = well fitted falling curve with a large enough effect; inconclusive = small, poorly fitted or top-dose-only effect; inactive = no such curve, though single readings can be large or run the other way;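 note: % is set by controls: 0 for no effect and ±100 for the full control effect; nearly all actives have a fitted effect of over 50% in size; the assay follows cell death caused by Vpr and the record does not say whether a fall means rescue or toxicity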
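Fission yeast strain RE007, carrying one chromosomally integrated HIV-1 vpr copy, was seeded at OD 0.01 in PMG+AL medium with 23 nL pinned compound. After 24 h at 30 °C and 99% humidity, viability was read by BacTiter-Glo luminescence.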
2A StopGo: High Throughput Screening for Foot and Mouth Disease Virus Antivirals; Potency, µM (titrated, usually from 57.9 µM), inactives show top-dose signal change, negative = less light; AID 1159524, 2015; 1.2% of 410,000 active; human cells with a luciferase reporter of 2A StopGo recoding; control for the full effect not named in the record; active = well fitted falling curve with a large enough effect; inconclusive = small, poorly fitted or top-dose-only effect; inactive = no such curve, though single readings can be large or run the other way; tested in HEK293T cells; note: % is set by controls: 0 for no effect and ±100 for the full control effect; nearly all actives have a fitted effect of over 45% in size; luciferase light after 4 h
NS1 inh: qHTS Assay for Inhibitors of Influenza NS1 Protein Function. S. cerevisiae slowed by influenza A NS1, growth recovery by OD600. Potency, µM (top dose mostly 46.1 µM), inactives show at the top dose activity, positive = more growth. 0.4% of 270,000 active; active means well fitted rising curve with a large enough effect; inconclusive means small, poorly fitted or top-dose-only effect; inactive means no such curve, though single readings can be large or run the other way; note: nearly all actives have a fitted effect of over 50% in size
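S. cerevisiae expressing influenza A NS1, grown in glucose, washed, then diluted 1:100 into pH 6.0 -URA galactose medium with 23 nl compound. Growth recovery read as OD600; NS1-free strain serves as control.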
Cruzain noTriton: qHTS Assay for Promiscuous and Specific Inhibitors of Cruzain (without detergent); Cruzipain (Trypanosoma cruzi), P25779; purified cruzain, Z-FR-AMC fluorescence, no detergent; Potency, µM, for inactives: max response, negative = inhibition, most hits filed as inhibitors; 2.3% of 200,000 active; AID 1476, 2009;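 note: plate controls were enzyme without inhibitor for no effect and buffer without enzyme for full effect; nearly all actives have a fitted effect of over 40% in size; top concentration of the series not given in the record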
Target sequence (P25779 123-467 limits assumed): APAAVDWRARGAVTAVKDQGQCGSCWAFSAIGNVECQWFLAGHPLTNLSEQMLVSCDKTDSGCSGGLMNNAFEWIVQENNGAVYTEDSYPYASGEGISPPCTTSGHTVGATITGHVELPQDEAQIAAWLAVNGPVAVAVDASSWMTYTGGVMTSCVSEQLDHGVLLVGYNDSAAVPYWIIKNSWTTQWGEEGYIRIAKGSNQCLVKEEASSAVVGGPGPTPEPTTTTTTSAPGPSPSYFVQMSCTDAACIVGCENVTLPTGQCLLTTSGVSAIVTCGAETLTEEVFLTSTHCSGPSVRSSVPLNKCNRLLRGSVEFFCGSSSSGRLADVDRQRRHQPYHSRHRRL
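Detergent-free condition (0.00005% Triton X-100) in acetate buffer pH 5.5 with DTT. 1.5 nM enzyme and compound were pre-mixed 15 min, then 2 uM Z-FR-AMC substrate added; reaction progress from fluorescence change between first and third reads (60 s).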
Cruzain Triton: qHTS Assay for Promiscuous and Specific Inhibitors of Cruzain (with detergent); Cruzipain (Trypanosoma cruzi), P25779; purified cruzain, Z-FR-AMC fluorescence, 0.01% Triton; Potency, µM, for the others: max response, negative = inhibition, usual class: inhibitors; 0.43% of 200,000 active; AID 1478, 2009;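 note: plate controls were neutral wells for no effect and buffer without enzyme for full effect; nearly all actives have a fitted effect of over 40% in size; top concentration of the series not given in the record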
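Steps: dispense cruzain (1.5 nM final) in acetate buffer pH 5.5 with DTT and 0.01% Triton X-100; pin-transfer compounds; incubate 15 min RT; add Z-FR-AMC (2 uM final); read fluorescence every 30 s, using the 60 s intensity change.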
Lassa entry inh: qHTS for Inhibitors of binding or entry into cells for Lassa Virus; AID 540256, 2011; Potency, µM (highest dose often 37.9 µM), inactives show at the top dose activity change, negative = inhibition, actives largely listed as inhibitors; 1.2% of 300,000 active; Lassa virus pseudotype entry inhibition, cell reporter; control for the full effect not named in the record; active means well fitted inhibition curve with a large enough effect; inconclusive means small, poorly fitted or top-dose-only effect, or effect the other way; inactive means flat fitted curve, though single readings scatter; tested in HEK293 cells; note: % is set by controls: 0 for no effect and ±100 for the full control effect; nearly all actives have a fitted effect of over 50% in size; luciferase read-out
SARS PLpro yeast: qHTS of Yeast-based Assay for SARS-CoV PLP; S. cerevisiae expressing SARS-CoV PLpro, growth rescue; control for the full effect not named in the record; Potency, µM (highest dose often 32.9 µM), inactives show at the top dose activity, positive = growth rescue; 0.19% of 330,000 active; AID 485353, 2010; active means well fitted rising curve with a large enough effect; inconclusive means small, poorly fitted or top-dose-only effect; inactive means no such curve, though single readings can be large or run the other way; note: 0% is about no effect; nearly all actives have a fitted effect of over 55% in size; growth read by luminescence after 48 h
Active calls of the source: *; ? = inconclusive; . = not tested or not shown; [ ] = another dose, or the depositor's remark. Unless noted, calls come from the whole dose curve; as a rule, active = well fitted curve in the direction sought with a large enough effect; inconclusive = small, poorly fitted or top-dose-only effect, or another doubt; inactive = no such curve, though single readings can be large; an effect the other way counts as inactive or inconclusive. Potency is the fitted concentration of half-maximal effect. An unsorted share of the library; overall some 4.8% were active at least once.

SMILES	Marburg entry inh	RE007 growth inh	2A StopGo	NS1 inh	Cruzain noTriton	Cruzain Triton	Lassa entry inh	SARS PLpro yeast
CC(C)NC(=O)c1ccc2c(c1)N(Cc1cccc(Cl)c1)C(=O)c1ccccc1S2=O (stereo not drawn)	.	.	-13%	.	-5%	-2.0%	-19%[46.1 µM]	.
COc1cccc(N2C(=O)CC(N3CCC(c4nc5ccccc5[nH]4)CC3)C2=O)c1 (stereo not drawn)	47%	35µM*	-21%	-78%	-25%	2.9%	-3%	-40%
COc1cc(C(=O)NCC2CCCO2)ccc1OCc1ccccc1 (stereo not drawn)	29%	15%	-3%	-1%	.	.	0%	2%
O=C(NCC(=O)N(c1cccnc1)C(C(=O)NC1CCCCC1)c1cccnc1)c1ccco1 (stereo not drawn)	-5%	3%	-13%	-8%	-1%	3.3%	3%	2%
CC(=O)c1cccc(-n2c(=O)c3c4c(sc3n(CC(=O)c3ccccc3)c2=O)CN(C(C)=O)CC4)c1	-7%[46.1 µM]	.	4%	.	1%	-0.4%	.	.
COC(=O)c1nc(NC(=O)c2ccc(F)cc2)n[nH]1	-1%[46.1 µM]	3%	-5%	.	.	.	8%	-4%
COc1ccc(NS(=O)(=O)c2cccc(C(=O)NCC(c3ccco3)N3CCCC3)c2)cc1 (stereo not drawn)	-21%[46.1 µM]	1%	-10%	.	.	.	7%	0%
Cc1cc(C)c(C(=O)CSc2nc3ccccc3c(=O)[nH]2)cc1C	5%	-9%	-9%	.	.	.	18%	-9%
CCOc1ccc(CC(=O)N/N=C(\C)c2cccnc2)cc1	0%[46.1 µM]	9%	?	1%	.	.	-5%[46.1 µM]	1%
COc1ccccc1/C=C\C(=O)NCC(=O)N/N=C(\C)Cc1ccccc1	17%[46.1 µM]	8%	-20%	0%	.	.	-1%[46.1 µM]	1%
CC(=O)Nc1ccccc1OCCOc1ccc(Br)cc1	?	-14%	0%	.	.	.	?	3%
CC1CCCCC12NC(=O)N(CC(=O)Nc1ccc(Cl)c(S(=O)(=O)N3CCOCC3)c1)C2=O (stereo not drawn)	-15%[46.1 µM]	4%	0%	.	.	.	15%	-1%
CCOc1ccc(CCNC(=O)c2cc3c(-c4ccc(OC)c(OC)c4)nn(C)c3s2)cc1OCC	?	.	?	.	?	-11%	?	.
Cc1cc(NC(=O)CCC(=O)N(c2cccc(F)c2)C(C(=O)NC2CCCC2)c2ccncc2)no1 (stereo not drawn)	?	-3%	8%	-17%	7%	5.1%	10%	2%
COC(=O)Nc1ccc(S(=O)(=O)N2CCC(C(=O)NC3CCCCC3)CC2)cc1	.	0%	-11%	-8%	.	.	.	1%
Cc1ccc(NC(=O)C2(c3ccccc3)CCOCC2)c([N+](=O)[O-])c1	2%	2%	-9%	3%	-2%	-4.5%	1%	0%
COc1cc(OCc2ccccc2)c(OC)c(OCc2ccccc2)c1	?	9%	6%	.	.	.	0%[46.1 µM]	.
CCCCN(C)CCNC(=O)c1c[nH]c2ccc(S(=O)(=O)N(CC)CC)cc2c1=O	-2%	-12%	-7%	1%	-17%	1.9%	?	2%
CCOc1ccc2nc(SCC(=O)Nc3ccc(S(=O)(=O)N4CCCC4)cc3)c(C)cc2c1	.	10%	0%	-1%	.	.	.	1%
COc1ccc(NC(=O)N2CCCc3cccc(C)c32)cc1	.	-6%	?	4%	.	.	.	-1%

Limited to Cruzain Triton and RE007 growth inh (3 entries from above):
Compound | Cruzain Triton | RE007 growth inh
CCOc1ccc2nc(SCC(=O)Nc3ccc(S(=O)(=O)N4CCCC4)cc3)c(C)cc2c1 | . | 10%
COc1cc(C(=O)NCC2CCCO2)ccc1OCc1ccccc1 (stereo not drawn) | . | 15%
Cc1ccc(NC(=O)C2(c3ccccc3)CCOCC2)c([N+](=O)[O-])c1 | -4.5% | 2%

Next entries
SMILES	Marburg entry inh	RE007 growth inh	2A StopGo	NS1 inh	Cruzain noTriton	Cruzain Triton	Lassa entry inh	SARS PLpro yeast
O=C1CCC(=O)N1CC1CC2CCC1C2 (stereo not drawn)	-9%[46.1 µM]	27%	-3%	4%	.	.	0%	1%
Cc1cccc(-c2nnc3sc(-c4ccccc4)nn23)c1	?	-8%	11%	-25%	12%	-0.9%	-16%	1%
CCCN(CCC)S(=O)(=O)c1ccc2c(c1)N(CC(=O)NC(C)c1ccccc1)C(=O)CS2 (stereo not drawn)	.	.	-8%	.	15%	0.5%	-25%[46.1 µM]	.
CCOC(=O)c1cc2c(=O)n3ccccc3nc2n(CC2CCCO2)c1=NC(=O)c1ccc(OCC)cc1 (stereo not drawn)	-29%[46.1 µM]	.	-23%	.	9%	-2.9%	0%[46.1 µM]	.
C/C(=C\C(=O)c1ccc(Cl)cc1Cl)N(C)C	13%[46.1 µM]	7%	25%	.	.	.	5%[46.1 µM]	2%
O=C(/C=C/c1ccco1)NCCCN1CCN(CCCNC(=O)/C=C/c2ccco2)CC1	-1%	3%	0%	5%	-6%	-9.2%	-3%	-8%
COCCn1cnc2c1c(=O)n(CC(=O)OCC#N)c(=O)n2Cc1ccccc1	13%[46.1 µM]	3%	-7%	.	.	.	-8%[46.1 µM]	0%
Cc1cccc(-c2noc(-c3ccc(NCc4ccccc4)c([N+](=O)[O-])c3)n2)c1	?	.	5%	.	9%	-3.5%	-9%[46.1 µM]	.
O=C(c1ccc(Cl)c(S(=O)(=O)N2CCOCC2)c1)N1CCN(c2ccccc2)CC1	-4%	2%	-29%	-1%	.	.	-12%	1%
C=CCSc1nnc(NC(=O)CSc2nc3ccccc3[nH]2)s1	8%	-3%	21%	15%	7%	-8.1%	4%	6%
CN(C)c1ccc(/C=C2/C[N+](C)(C)C/C(=C/c3ccc(N(C)C)cc3)C2=O)cc1	-1%	?	0%	.	.	.	?	.
COc1ccc(/C(C)=N/NC(=O)CCC(=O)Nc2ccc(Cl)cc2Cl)c(OC)c1	-5%	-8%	-12%	13%	10%	-2.4%	?	-7%
C=CCNC(=O)COC(=O)c1cc(S(=O)(=O)N2CCCCC2)ccc1Cl	-6%	7%	-3%	.	.	.	?	-1%
CC(=O)Nc1ccc(Nc2ncnc3sc4c(c23)CCCC4)cc1	.	.	-18%	.	-1%	-5.9%	-3%[46.1 µM]	.
Cc1cc(=O)[nH]c2ccc(S(=O)(=O)N3CCOCC3)cc12	?	-8%	-11%	-5%	.	.	-1%[46.1 µM]	0%
CCCC1(c2ccccc2)NC(=O)N(CCN2C(=O)c3ccccc3C2=O)C1=O (stereo not drawn)	-1%	-2%	-23%	?	1%	1.7%	-4%	4%
CCOc1cccc(/C=N/NC(=O)CC2C(=O)NN=C2C)c1O (stereo not drawn)	5%[46.1 µM]	-11%	-7%	.	.	.	2%	-5%
COc1ccc(-c2cc(C(F)(F)F)nc(SCCC(=O)Nc3cccc(O)c3)n2)cc1	?	.	-20%	.	-3%	-15%	14%[46.1 µM]	.
CN1CCN(c2ccc([N+](=O)[O-])c(Sc3nc4ccccc4[nH]3)c2)CC1	-23%	17%	-8%	0%	-1%	-3.9%	-21%	0%
[O-]/C(=C(\C(=S)Nc1cccc2ccccc12)[n+]1cccc(CO)c1)c1ccc(Cl)s1	.	-14%	16%	7%	.	.	.	-1%
CC(=O)N(c1ccc(C)cc1)S(=O)(=O)c1ccc(Cl)cc1	0%[46.1 µM]	7%	9%	2%	.	.	17%[46.1 µM]	1%
CCCCCCn1c(O)c(C=NCCN2CCCCC2)c(=O)[nH]c1=O	2%	-10%	-27%	10%	-6%	-0.1%	-2%	-4%
COc1ccccc1OCC#CCn1ccnc1	-17%	-7%	-10%	2%	.	.	-1%	0%
Cc1ccc(-c2nc(C#N)c(NCCc3ccccn3)o2)cc1	5%	4%	62%[activator]	-15%	3%	-0.3%	?	-9%
c1ccc(CCc2nn3c(C4COc5ccccc5O4)nnc3s2)cc1 (stereo not drawn)	10%	5%	.	.	-8%	-5.8%	-20%	-13%
CN1CCc2c(n(CC(O)CN(CCO)CCO)c3ccccc23)C1=O (stereo not drawn)	.	1%	-2%	12%	.	.	.	5%
Brc1ccc(C2=CC(c3cccs3)n3ncnc3N2)cc1 (stereo not drawn)	?	-23%	12%	-40%	-24%	-6.7%	?	-19%
O=C(Nc1cccc(C(F)(F)F)c1)c1noc2c1CCc1ccccc1-2	?	.	27%	.	-14%	-16%	-11%[46.1 µM]	.
CCOc1cc(C(c2c(C)[nH][nH]c2=O)c2c(C)[nH][nH]c2=O)cc(Cl)c1O	.	20%	?	3%	.	.	.	-3%
COc1ccc(CN2C(=O)COc3ccccc32)cc1	1%[46.1 µM]	7%	-19%	28%	.	.	19%[46.1 µM]	5%
O=C1NC(=O)N(CCc2ccc(F)cc2)C(=O)/C1=C/C=C/c1ccccc1	6%[14.2 µM]	-14%	10µM*	?	.	.	?	3%
S=C1NCN(C2CCCCC2)CN1c1ccccc1	.	-8%	34%[activator]	3%	.	.	.	0%
COc1cc(NC(=O)COCc2cc(-c3ccc(F)cc3)on2)cc(OC)c1OC	-4%[46.1 µM]	.	-12%	.	20%	-0.5%	-9%[46.1 µM]	.

Three structures out of the list, sorted by heavy-atom count, high to low.
SMILES	Marburg entry inh	RE007 growth inh	2A StopGo	NS1 inh	Cruzain noTriton	Cruzain Triton	Lassa entry inh	SARS PLpro yeast
CCOc1cc(C(c2c(C)[nH][nH]c2=O)c2c(C)[nH][nH]c2=O)cc(Cl)c1O	.	20%	?	3%	.	.	.	-3%
CCCCCCn1c(O)c(C=NCCN2CCCCC2)c(=O)[nH]c1=O	2%	-10%	-27%	10%	-6%	-0.1%	-2%	-4%
Brc1ccc(C2=CC(c3cccs3)n3ncnc3N2)cc1 (stereo not drawn)	?	-23%	12%	-40%	-24%	-6.7%	?	-19%
